Compound activity (PubChem BioAssay)
MLL AF4-AF9 inh = blocks AF4 peptide binding to human AF9; P42568; 350,000 compounds, 0.47% hits; AlphaScreen, biotin-AF4 peptide binding to FLAG-AF9; inhibition, % at 10 µM; AID 651704;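 active means every replicate reaching a set inhibition limit, whatever the replicate mean, cut at about 25% in these data; inconclusive means mean inhibition reaches that limit but some replicates miss it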;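 further: 0% = plate neutral control median and 100% = total signal loss; the record names both 10 and 1 µM as test concentration; the first replicate is given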
Target sequence (P42568 whole entry, looked up): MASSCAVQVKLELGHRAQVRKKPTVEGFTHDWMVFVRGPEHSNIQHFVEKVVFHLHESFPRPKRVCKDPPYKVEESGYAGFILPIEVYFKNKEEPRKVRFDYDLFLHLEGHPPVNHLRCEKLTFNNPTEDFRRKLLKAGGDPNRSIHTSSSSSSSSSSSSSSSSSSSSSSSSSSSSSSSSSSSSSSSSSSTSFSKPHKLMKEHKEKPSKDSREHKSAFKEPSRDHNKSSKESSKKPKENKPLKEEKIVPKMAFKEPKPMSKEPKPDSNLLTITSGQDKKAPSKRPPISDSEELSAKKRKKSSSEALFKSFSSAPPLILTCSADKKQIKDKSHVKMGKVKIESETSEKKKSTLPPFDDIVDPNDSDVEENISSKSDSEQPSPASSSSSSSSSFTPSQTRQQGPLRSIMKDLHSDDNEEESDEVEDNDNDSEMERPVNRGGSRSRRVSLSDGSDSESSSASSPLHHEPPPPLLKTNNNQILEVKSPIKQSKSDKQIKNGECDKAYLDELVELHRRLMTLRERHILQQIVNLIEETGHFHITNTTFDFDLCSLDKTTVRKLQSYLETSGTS
rRNA inh HTS = selective bacterial rRNA inhibition in E. coli; AID 720706; E. coli WT GFP vs humanized-ribosome RFP mutants, fluorescence, 24 h; stronger effect = lower value; DMSO median 0, no signal -100; GFP signal change (wild-type ribosome), % (concentration not given with the values); 350,000 compounds, 1.6% hits;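 active means significant combined selectivity score with lowered wild-type GFP, culture density cut under 30%, mutant RFP and density less affected; inactive means any of these conditions unmet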; further: one replicate is shown; some compounds called inactive have numbers as strong as hits
FGF22 binding = shifts melting point of recombinant human FGF22; recombinant FGF22 thermal shift, SYPRO orange fluorescence; percent of sucrose octasulfate shift, DMSO zero; calls only at 9.99 µM; Q9HCT0; AID 651658; 340,000 compounds, 1.5% hits;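 active means melting point raised past a set limit in the mean and every replicate; inconclusive means no clear call; three in four hits are not shown here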
Target sequence (Q9HCT0 whole entry, looked up): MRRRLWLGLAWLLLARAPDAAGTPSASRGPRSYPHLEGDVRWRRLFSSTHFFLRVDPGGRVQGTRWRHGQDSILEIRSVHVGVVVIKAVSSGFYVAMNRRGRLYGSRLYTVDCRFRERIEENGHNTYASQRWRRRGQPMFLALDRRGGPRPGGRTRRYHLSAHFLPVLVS
Vif TR-FRET = HIV-1 Vif–A3G interaction blockers – biochemical, TR-FRET, GST-Vif 1-94, biotin-A3G peptide, dose response retest, primary screen (AID 1117319). TR-FRET GST-Vif / biotin-A3G peptide binding; higher % means a stronger effect; test concentration not given here; strong numbers were not always called active. inhibition, %, or IC50 in µM where a hit was titrated. 260,000 compounds, 0.57% hits;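 active means above the screen mean plus three standard deviations and confirmed in dose response; inconclusive means results disagree or hit not tested in dose response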;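 further: Vif residues 1-94 fused to GST binding biotinylated APOBEC3G peptide 110-148; 0% = full assay without inhibitor and 100% = GST in place of GST-Vif; retest series ran down from 100 µM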
Ecoli growth = E. coli growth inhibition; Escherichia coli growth, OD600, 23 h; stronger effect = lower value; OD600 absorbance (concentration not given with the values); 330,000 compounds, 0.21% hits; AID 1053175;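 active means OD600 absorbance below the run mean of sample wells minus 3.6 SD, in any replicate, cut at about 0.56 in these data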;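 further: stock transfer was 300 nL into about 60 µL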
ALR H2O2 inh = inhibitors of human sulfhydryl oxidase ALR; P55789; purified ALR, DTT oxidation, H2O2 HRP-luminol luminescence; inhibition, % (test concentration not listed); 290,000 compounds, 3.8% hits;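 active means mean and each replicate at 75% or more; inconclusive means only one of the two met; inactive means neither met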;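 further: stock transfer was 7.5 nL into about 7.5 µL; 0% = neutral wells and 100% = wells with inactivated enzyme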
Target sequence (P55789 whole entry, looked up): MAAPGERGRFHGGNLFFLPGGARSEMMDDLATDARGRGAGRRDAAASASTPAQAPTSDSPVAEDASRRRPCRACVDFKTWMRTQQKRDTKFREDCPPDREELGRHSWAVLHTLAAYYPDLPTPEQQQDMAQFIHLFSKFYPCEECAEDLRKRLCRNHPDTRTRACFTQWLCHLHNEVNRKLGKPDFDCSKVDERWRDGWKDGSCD
HNF4A DNA FP = change in binding of human HNF4 alpha to DNA | P41235 | HNF4a-FITC DNA binding, fluorescence polarization, 1 h | activity change, % at 10 µM | 360,000 compounds, 0.3% hits | AID 1224865; in the data active means activity change above about 30%, passing the limit was not always enough;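 further: controls were the assay level and a saturating level of protein; the project sought stronger binding though the title names inhibitors; some compounds called inactive have numbers as strong as hits; positive values seem to mean higher polarization but the record does not say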
rRNA inh HTS OD600 = also measured in rRNA inh HTS; calls as there; OD600 change, %; measured here: OD600 growth;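 optical density of the mix in the first replicate; 0 = DMSO median and -100 = no signal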
rRNA inh HTS RFP = further read-out of rRNA inh HTS, marked with its call; RFP signal change, %; measured here: RFP humanized mutant strains;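 first replicate; 0 = DMSO median and -100 = no signal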
Numbers without * were called inactive; i = inactive; ? = inconclusive; · = no result given.

SMILES	MLL AF4-AF9 inh	rRNA inh HTS	rRNA inh HTS OD600	rRNA inh HTS RFP	FGF22 binding	Vif TR-FRET	Ecoli growth	ALR H2O2 inh	HNF4A DNA FP
O=S(=O)(c1cccc(-c2csc(-c3cccnc3)n2)c1)N1CCOCC1	-1.6	-3	-9	-3.0	i	-10%	0.67	99*	4.0
O=C(N[C@H]1CC[C@H](CC(=O)N2CCc3ccccc3C2)O[C@@H]1CO)C1CC1	-5.3	0	2	-2.5	i	·	·	·	·
O=C(Nc1ccc2c(c1)OCO2)c1cc(C2CCCN(C(=O)C3CCCCC3)C2)on1 (configuration not stated)	2.6	-3	-36	-6.1	i	·	·	·	5.4
O=C(O)CCC(=O)NCc1ccc(C(=O)O)cc1	·	·	·	·	·	-2%	0.66	·	2.7
COc1ccc(/C=C/C(=O)Nc2ccncc2)cc1OC	3.7	-17	-20	-4.7	i	11%	0.68	-7	-0.9
CN=c1scc(-c2ccc(OC)cc2)n1/N=C(\C)c1cccnc1	48*	-52	-72	-20	i	8%	·	26	2.4
Cc1cc(C)nc(N/N=C/c2ccccc2OCc2ccc(Br)cc2)n1	-1.4	2	-6	1.4	i	?	·	-5	-3.0
CN(C(=O)COC(=O)c1ccc2c(c1)OCO2)C1CCS(=O)(=O)C1 (configuration not stated)	·	·	·	·	·	0%	0.72	3	-3.0
N#CC1=C(N)Oc2n[nH]c(-c3cccs3)c2C1c1ccco1 (configuration not stated)	·	·	·	·	·	31%	0.74	75*	24
O=C(NC1CCCCC1)Oc1cc2oc(=O)sc2cc1Br	-4.2	·	·	·	i	·	0.62	71	-0.7
Cc1ccc(NC(=O)c2cnn(-c3ccccc3)c2C)cc1	-2.9	-2	-5	0.5	·	·	0.64	-9	1.2
CCCCc1nnc(NC(=O)c2ccc(N3CCCC3=O)cc2)s1	-1.8	8	5	-0.7	i	-2%	0.64	-6	2.4
O=C(C[C@@H]1C=C[C@H](NC(=O)Nc2ccc(C(F)(F)F)cc2)[C@H](CO)O1)NCc1ccccn1	-2.2	-3	-1	2.3	i	·	·	·	·
CN(c1ccc(C(=O)NCc2cccs2)cc1)S(=O)(=O)c1ccccc1	-0.5	-18*	-8.4*	4.8*	i	8%	0.63	-4	4.3
CCOc1c(Cl)cc(C(=O)Nc2ccccc2-c2ccccc2)cc1Cl	·	·	·	·	·	-3%	0.78	-3	-2.6
CCOC(=O)C1=C(N)OC2=C(C(=O)CC(C)(C)C2)C1c1ccoc1 (configuration not stated)	·	·	·	·	·	-3%	0.76	-13	1.4
CC(=O)c1c(C)[nH]c(C(=O)Nc2ccccc2N2CCOCC2)c1C	-0.9	11	-3	-1.7	i	0%	0.68	4	-2.2
CNC[C@H]1Oc2cc(C#CC3CCCC3)ccc2S(=O)(=O)N([C@@H](C)CO)C[C@H]1C	-8.6	-1	11	-3.2	i	·	·	·	·
C[C@H]1CN([C@@H](C)CO)S(=O)(=O)c2ccc(C#CC(C)(C)O)cc2O[C@H]1CN(C)C(=O)C1CCCCC1	-2.3	-1	1	-1.1	i	·	·	·	·
COc1ccc(-c2sc3cc4c(cc3c2-c2ccc(OCCN3CCOCC3)cc2)OCO4)cc1	-1.0	14	11	-0.2	i	·	·	0	-2.8
COc1ccc(NC(=O)c2ccc3c(c2)n(C)c(=O)n3C)cc1	-2.5	-3	-6	-2.9	i	26%	0.7	-2	-2.6
Cc1ccc(C(=O)OCC(=O)Nc2ccccc2Sc2ccccc2)cc1C	·	·	·	·	·	-3%	0.64	·	0.8
Cc1ccc(NC(=O)c2csc3c2CCCC3)cc1	-3.4	-18	-14	-4.1	i	3%	0.66	-8	2.6
O=C(N/N=C\C=C\c1ccc2c(c1)OCO2)c1ccc(F)cc1	0.6	4	16	0.3	·	-3%	·	-25	2.0
C[C@H](NC(=O)[C@H]1[C@H](CO)[C@H]2Cn3c(cccc3=O)[C@@H]1N2Cc1ccccc1)c1ccccc1	-1.8	4	3	-2.1	i	·	·	·	·
COC(=O)[C@]12C[C@H](CC(=O)N3CCN(C(=O)C4CC4)CC3)C(=O)N(Cc3ccccc3)C1=C[C@H](C(C)(C)C)O[C@@H]2C	2.4	-2	5	-1.1	i	·	·	·	·
CN(Cc1ccccc1)S(=O)(=O)c1cccc(C(=O)O)c1	-1.7	2	-5	0.0	i	32%	0.66	7	-1.6
Cc1noc(C)c1S(=O)(=O)Nc1ccc2c(c1)C(=O)N([C@@H](C)CO)C[C@@H](C)[C@H](CN(C)S(C)(=O)=O)OCCCC[C@@H](C)O2	-4.5	1	9	0.6	i	·	·	·	·
COc1ccc(-c2ccnc(-c3ccncc3)n2)cc1	3.0	-2	4	-0.2	i	-6%	0.65	0	4.5
COc1ccc(N(C(=O)Cn2nnc(-c3ccc(Cl)cc3)n2)C(C(=O)NCC2CCCO2)c2ccc(C)cc2)cc1 (configuration not stated)	·	·	·	·	·	5%	0.73	22	1.6
CN(C)C(=O)CCc1ccc2c3c([nH]c2c1)[C@]1(C)[C@@H](C(=O)N2CCCCC2)C[C@H](CC(=O)NCCc2ccccn2)C(=O)N1CC3	1.1	-1	11	0.8	i	-2%	0.71	·	2.2
CC1S/C(=C(\C#N)C(=O)NCc2ccco2)N(Cc2ccco2)C1=O (configuration not stated)	·	·	·	·	·	?	·	-3	-3.5
CCOc1ccc(-n2c(SCC(=O)c3c(N)n(C)c(=O)n(C)c3=O)nnc2-c2cccnc2)cc1	0.6	-1	16	0.4	i	6%	0.69	-25	-2.7
CCN(CC(=O)Nc1c(F)cccc1F)C(=O)C1CCN(S(=O)(=O)c2ccc(C)c(C)c2)CC1	-1.1	2	-1	-1.5	i	6%	0.68	·	-2.8
O=S(=O)(Nc1ccc(-n2cnnn2)cc1)c1ccc(Cl)cc1	-0.4	7	-1	0.2	i	·	0.71	3	-3.9
CCOC(=O)CN1C(=O)S/C(=C/c2ccc3c(c2)n(C)c(=O)n3C)C1=O	·	·	·	·	·	·	0.72	-1	-1.9
COC(=O)c1ccccc1NC(=O)Cc1nc(-c2ccccc2)sc1-c1ccc(C)cc1	4.9	·	·	·	i	·	0.76	-12	9.9
Cc1cc(C(=O)O)ccc1NCc1ccncc1	-8.3	6	8	-2.3	i	·	0.64	-17	4.5
Cn1cc(C(=O)N/N=C/c2cccc(O)c2)ccc1=O	-5.9	12	3	-7.0	i	-5%	·	28	0.4
CC(=O)Nc1ccc(CN2CCCC(CCC(=O)NCc3ccccc3F)C2)cc1 (configuration not stated)	-0.4	5	3	-1.2	i	·	0.62	-2	2.5
COc1ccccc1NS(=O)(=O)c1cc(NC(=O)c2cccnc2)ccc1N1CCCCC1	0.2	0	-6	3.9	·	-3%	0.73	-1	0.5
COc1cccc(N/C(SC)=C(/C#N)C(N)=O)c1	·	·	·	·	·	0%	0.72	·	3.6
Cc1cc(C)c(C#N)c(SCc2c(F)cccc2[N+](=O)[O-])n1	·	·	·	·	·	7%	0.67	-10	-1.4
Fc1ccc(Nc2cncc(-c3ccsc3)c2)cc1Cl	-3.1	2	3	5.9	i	·	·	·	1.8
O=C(Nc1cc(C(F)(F)F)ccc1N1CCCCC1)c1cccc([N+](=O)[O-])c1	·	·	·	·	·	0%	0.65	-22	1.0
CC(Cc1cccs1)NC(=O)NC1CCCCC1 (configuration not stated)	-34	1	-4	-3.4	i	3%	0.66	-3	-8.0
O=C(Nc1nccs1)c1cc(S(=O)(=O)N2CCOCC2)ccc1Cl	·	·	·	·	·	-1%	0.73	-2	2.0
O=C(COc1ccc(S(=O)(=O)N2CCOCC2)cc1Cl)NCC1CCCO1 (configuration not stated)	-1.7	4	8	0.2	i	·	0.71	0	1.2
CN(C)CCCNC1=CC(=O)CC(c2ccccc2)C1 (configuration not stated)	6.5	12	8	-5.5	i	·	0.71	-11	2.2
CC(=O)N1CC[C@@H]2[C@H](CO)Nc3ccc(-c4ccccc4)cc3[C@@H]21	0.8	0	-1	0.6	i	·	·	·	·
C[C@@H]1CN([C@H](C)CO)C(=O)c2cc(NS(C)(=O)=O)ccc2O[C@@H](C)CCCCO[C@H]1CN(C)S(=O)(=O)c1cccs1	-11	-3	-1	1.1	i	·	·	·	·
CCCN(C)C[C@H]1OCCCC[C@@H](C)Oc2ccc(NC(=O)c3ccccc3)cc2C(=O)N([C@H](C)CO)C[C@@H]1C	-0.2	3	9	-2.5	i	·	·	·	·

In the list so far, these have four or more nitrogen atoms:
SMILES	MLL AF4-AF9 inh	rRNA inh HTS	rRNA inh HTS OD600	rRNA inh HTS RFP	FGF22 binding	Vif TR-FRET	Ecoli growth	ALR H2O2 inh	HNF4A DNA FP
CN=c1scc(-c2ccc(OC)cc2)n1/N=C(\C)c1cccnc1	48*	-52	-72	-20	i	8%	·	26	2.4
Cc1cc(C)nc(N/N=C/c2ccccc2OCc2ccc(Br)cc2)n1	-1.4	2	-6	1.4	i	?	·	-5	-3.0
N#CC1=C(N)Oc2n[nH]c(-c3cccs3)c2C1c1ccco1 (configuration not stated)	·	·	·	·	·	31%	0.74	75*	24
CCCCc1nnc(NC(=O)c2ccc(N3CCCC3=O)cc2)s1	-1.8	8	5	-0.7	i	-2%	0.64	-6	2.4
O=C(C[C@@H]1C=C[C@H](NC(=O)Nc2ccc(C(F)(F)F)cc2)[C@H](CO)O1)NCc1ccccn1	-2.2	-3	-1	2.3	i	·	·	·	·
Cc1noc(C)c1S(=O)(=O)Nc1ccc2c(c1)C(=O)N([C@@H](C)CO)C[C@@H](C)[C@H](CN(C)S(C)(=O)=O)OCCCC[C@@H](C)O2	-4.5	1	9	0.6	i	·	·	·	·
COc1ccc(N(C(=O)Cn2nnc(-c3ccc(Cl)cc3)n2)C(C(=O)NCC2CCCO2)c2ccc(C)cc2)cc1 (configuration not stated)	·	·	·	·	·	5%	0.73	22	1.6
CN(C)C(=O)CCc1ccc2c3c([nH]c2c1)[C@]1(C)[C@@H](C(=O)N2CCCCC2)C[C@H](CC(=O)NCCc2ccccn2)C(=O)N1CC3	1.1	-1	11	0.8	i	-2%	0.71	·	2.2
CCOc1ccc(-n2c(SCC(=O)c3c(N)n(C)c(=O)n(C)c3=O)nnc2-c2cccnc2)cc1	0.6	-1	16	0.4	i	6%	0.69	-25	-2.7
O=S(=O)(Nc1ccc(-n2cnnn2)cc1)c1ccc(Cl)cc1	-0.4	7	-1	0.2	i	·	0.71	3	-3.9
COc1ccccc1NS(=O)(=O)c1cc(NC(=O)c2cccnc2)ccc1N1CCCCC1	0.2	0	-6	3.9	·	-3%	0.73	-1	0.5

This is a subset; the hit share may differ from the screen's.
